PrP 5UTR inh: suppresses PrP 5' UTR mRNA reporter expression | cell-based PrP 5' UTR mRNA reporter, plate reader | 340,000 compounds, 0.35% hits | inhibition, % (no concentration beside the values);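 active means every replicate at 50% or more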;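 further: 0 = median of the neutral control wells; tested in H4 reporter cells; numbers are from one replicate; inactives centre near -14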
BJeLR lethal: BJeLR cell viability loss. BJeLR (HRASV12) viability, CellTiter-Glo ATP luminescence, 48 h; reference of the scale not given here. inhibition, % (no concentration beside the values). 300,000 compounds, 0.17% hits;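 active means replicate mean above 50%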;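 further: 50 nL library stock added to about 25 µL; numbers are from one replicate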
Autofluor counter: flagged as autofluorescent in microsphere protease counterscreen; compound autofluorescence counterscreen, microsphere flow cytometry; hits give high values; 360,000 compounds, 3.1% hits; fluorescence intensity (concentration not given with the values);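 active means at least 3 SD above the mean of all compounds, about 16000 in these data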;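 further: 100 nL of 1 mM stock went into each well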
Mtb hypoxia rep: Mtb hypoxia fluorescent reporter inhibition | fluorescence inhibition, % (no concentration beside the values) | M. tuberculosis hypoxia-regulated fluorescent reporter, fluorescence | 300,000 compounds, 0.1% hits;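 active means 35 to 45% if threefold the growth effect, above 45% if 1.5-fold the growth effect; inactive means the rest, general growth blockers included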;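 further: wells of about 50 µL received 100 nL stock; 0% = vehicle wells and 100% = reference inhibitor wells; whole bacteria with a GFP reporter of the hypoxia response; strong numbers were not always called active; many hits fall short of the cut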
RN4220 kill: S. aureus RN4220 growth inhibition; OD600, 16 h; inhibition, % (test concentration not listed); 330,000 compounds, 0.33% hits;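 active means z-score of -3 or lower and OD600 up to 0.18 on both plates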;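 further: plate controls were untreated cells for no effect and reference antibiotic for full effect; stock transfer was 100 nL into about 80 µL; one replicate is shown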
ugtP null kill: compounds lethal to S. aureus RN4220 ugtP deletion mutant; OD600 growth, 16 h; some inactives read as strong as hits; growth inhibition, % (no concentration beside the values); 330,000 compounds, 0.54% hits; AID 1259309;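 active means z-score under -3 and OD600 up to 0.15 on both plates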;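 further: plate controls were untreated wells for no effect and antibiotic for full effect; wells of about 80 µL received 100 nL stock; the first replicate is given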
Mtb hypoxia rep growth: recorded beside Mtb hypoxia rep, whose call it bears; growth inhibition, %; measured here: M. tuberculosis growth (absorbance);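 0% = vehicle and 100% = reference antibiotic; read after six days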
An asterisk follows results filed as active; x = no result given.

item	SMILES	PrP 5UTR inh	BJeLR lethal	Autofluor counter	Mtb hypoxia rep	Mtb hypoxia rep growth	RN4220 kill	ugtP null kill
1	O=S(=O)(NC1CCCC1)c1ccc(S(=O)(=O)NC2CCCC2)cc1	-45	8	10020	-4	3	8.5	1
2	CSc1nc(C)cc(/C=C\c2ccccc2)c1C#N	-34	-4	10037	2	9	13	2
3	C=C1C(C(=O)N2CCN(C)CC2)C1C(=O)N1CCN(C)CC1 (stereo unspecified)	-25	12	10980	10	9	2.1	2
4	O=C1C2C3CC(C(Br)C3Br)C2C(=O)N1c1nccs1 (stereo unspecified)	x	-2	5283	6	7	2.6	1
5	C[C@@]1(C(NP(=O)(c2ccccc2)c2ccccc2)c2ccccc2)CC1CCO (stereo partly specified)	x	x	x	13	7	11	1
6	COc1ccc(-n2ccnc2CN2CCCC(CO)(Cc3cccc(OC)c3)C2)cc1 (stereo unspecified)	-1	4	2865	-9	1	3.3	1
7	COC(=O)C1CC(=O)N(Cc2ccccc2)C1 (stereo unspecified)	-3	-3	4235	2	5	9.5	22
8	CC(C)CN(C(=O)COC(=O)CNC(=O)c1ccccc1F)C1CCS(=O)(=O)C1 (stereo unspecified)	-27	3	6720	1	9	-1.8	-7
9	Cc1ccc(C(=O)Nc2ccc(Cl)cn2)cc1S(=O)(=O)N1CCOCC1	-12	-5	3815	8	17	10	5
10	CCN(CC)C(=O)C=Cc1ccccc1	x	x	x	9	17	1.5	-3
11	COc1cc(C=Nn2cnc3scc(-c4cccs4)c3c2=O)cc(OC)c1OC	x	x	x	-5	-3	-1.0	-1
12	OCCCn1c(C(CO)Nc2nc(-c3ccc(Cl)cc3)cs2)nc2ccccc21 (stereo unspecified)	0	-6	3064	2	7	0.5	-25
13	CCOC(=O)C1=C(O)/C(=C/c2cn(CC(=O)NCC3CCCO3)c3ccccc23)SC1=Nc1ccc(C)cc1 (stereo unspecified)	14	x	2940	2	-6	7.5	-5
14	O=C(NC1=NCCS1)c1sc2cc(Cl)cc(Cl)c2c1Cl	-37	-9	2216	24	30	-8.9	27
15	O=C(CSc1nnc(-c2cccnc2)n1CCN1CCCCC1)Nc1cccc(Cl)c1	-18	-2	2108	x	x	7.9	0
16	COCCNC(=O)C1CC2Cn3c(nc4cc(Cl)c(Cl)cc43)C2N1C (stereo unspecified)	-15	-6	4102	4	-5	0.1	-3
17	CCOc1cc(C#N)c(NC(=O)c2cccnc2)cc1OCC	-22	33	2781	x	x	-0.5	1
18	O=C(O)CN1C(=O)/C(=C2\C(=O)N(Cc3ccccc3Cl)c3ccccc32)SC1=S	-27	0	2938	4	-2	8.9	10
19	CCOC(=O)Cc1csc(SCc2nc3ccccc3c(=O)[nH]2)n1	-19	6	9399	15	23	5.7	-1
20	COc1cc(OC)cc(C(=O)NCC2CCCN(C(=O)c3csc(C(C)C)n3)C2)c1 (stereo unspecified)	-27	-9	5334	15	2	0.9	0
21	Cc1[nH]n(-c2ccccc2)c(=O)c1C1(C(F)(F)F)C(=O)N(c2ccccc2)C2=C1C(=O)CC(C)(C)C2 (stereo unspecified)	-7	-11	23155*	14	9	2.9	58
22	COc1ccc(-c2ccc(C#N)c(OC(=O)c3c(Cl)cccc3Cl)n2)cc1	-26	-1	3208	9	8	-1.5	0
23	Nc1ccc(C(=O)OCc2nc3ccccc3s2)cc1	-50	-2	4754	x	x	x	x
24	Cc1cccc(/C=N/NC(=O)c2cc(Br)ccc2OCc2ccccc2)n1	5	-2	4236	x	x	x	x
25	CC1(C)CC2C3=CCC4[C@@]5(C)CCC(OC6OC(C(=O)O)C(O)C(O)C6O)[C@@](C)(CO)C5CC[C@@]4(C)[C@]3(C)CC(O)[C@@]2(CO)C(O)C1O (stereo partly specified)	x	x	x	0	7	-0.9	-4

Single records, as listed above. Values in the order: PrP 5UTR inh | BJeLR lethal | Autofluor counter | Mtb hypoxia rep | Mtb hypoxia rep growth | RN4220 kill | ugtP null kill
Entry for CCN(CC)C(=O)C=Cc1ccccc1 → x | x | x | 9 | 17 | 1.5 | -3
Entry for O=C(NC1=NCCS1)c1sc2cc(Cl)cc(Cl)c2c1Cl → -37 | -9 | 2216 | 24 | 30 | -8.9 | 27

Next records:
item	SMILES	PrP 5UTR inh	BJeLR lethal	Autofluor counter	Mtb hypoxia rep	Mtb hypoxia rep growth	RN4220 kill	ugtP null kill
26	O=C(NC1(C(=O)NC2CCCC2)CCCCC1)c1ccc2c(c1)OCO2	-13	5	4941	-1	5	-8.1	-2
27	CCOC(=O)C(C)Oc1cccc2c(=O)n(CC(=O)N3CCc4ccccc43)ccc12 (stereo unspecified)	-11	-4	4283	-1	1	7.3	10
28	COc1cccc(CN2C[C@]34C=C[C@@H](C[C@@H]3S2(=O)=O)O4)c1	-29	-13	3698	x	x	x	x
29	CC(C)(C)C1CCc2c(sc3nc(SCC(=O)O)nc(N)c23)C1 (stereo unspecified)	-7	10	3708	-2	1	6.2	27
30	CN(C)c1ccc(C=NNC(=O)c2cccc3cc[nH]c23)cc1	x	x	x	-3	0	-1.0	3
31	COc1cc(C(=O)NCCC(=O)NC2CCCCC2)cc(OC)c1OC	-11	11	4953	7	-1	3.5	7
32	COC(=O)NNC(=O)C12CC3CC(CC(C3)C1)C2	-3	-8	6873	6	0	7.4	7
33	CCOC(=O)CC1=NN(c2ccccc2)C(=O)C1=c1sc(=C2SC(C)=C(C)N2CC)c(=O)n1CC	-20	x	4631	-2	5	2.5	2
34	CCN(c1ccccc1)S(=O)(=O)c1cc(NC(=O)Nc2ccccc2C#N)ccc1Cl	-3	-8	1950	5	12	6.1	-4
35	O=C1CSC(=S)N1c1cccc(Br)c1	11	1	3476	4	-4	5.8	6
36	CCCCCCC1CC(C(C)=NNC(N)=O)OC1=O (stereo unspecified)	x	x	x	20	23	1.4	1
37	Cc1cccc(C)c1NC(=O)CSc1nnc([C@@H]2CCCN2C(=O)OC(C)(C)C)o1	-21	-2	9878	2	10	-1.8	-6
38	CC(=O)Nc1cc2c3c(c1)CCN3C(=O)CC2	8	-9	4569	-4	-5	3.7	-5
39	O=C(CC=NOCc1ccc([N+](=O)[O-])cc1)Nc1ccc(Br)cc1	x	x	x	7	7	-3.2	-11
40	O=C(Nc1cccnc1)c1ccc(N2CCOCC2)c([N+](=O)[O-])c1	-27	8	4149	23	6	1.4	7
41	CC1(C)CC(=NO)CC(C)(C)N1	-6	2	4497	14	3	-0.9	5
42	COc1ccc(N2C(=O)CSC23C(=O)N(CC(=O)NC2CCCC2)c2ccccc23)cc1 (stereo unspecified)	-13	2	6254	4	-2	5.4	2
43	Cc1ccc(C)c(NC(=S)NNC(=O)c2csc3c2CCC(C)C3)c1 (stereo unspecified)	x	-5	10543	-3	3	-8.6	-17
44	CCCc1cc(=O)oc2cc(OCC(=O)NCCc3c[nH]c4ccc(OC)cc34)ccc12	-17	-2	5927	x	x	-6.7	4
45	O=C(Cn1nnc(-c2ccccc2)n1)N/N=C/c1cccc([N+](=O)[O-])c1O	-16	5	4528	x	x	x	x
46	O=C(Cn1cnc2c(cnn2-c2ccccc2)c1=O)N1CCN(c2ccc(F)cc2)CC1	-3	6	9851	3	-1	5.3	9
47	COc1ccccc1CNS(=O)(=O)c1ccc2c(c1)NC(=O)CS2	-18	4	5162	5	2	6.4	3
48	C=CCNC(=O)c1onc(CSc2ccc(C)c(C)c2)c1C(=O)O	-3	-5	3944	16	6	11	5
49	CCCCOC(=O)C1=C(C)NC2=C(C(=O)CCC2)C1c1cc(OC)ccc1OC (stereo unspecified)	-10	5	8968	5	11	1.8	-3
50	Cc1cnccc1CN(C)Cc1nc(Cc2ccccc2Cl)no1	-26	5	4826	-8	2	4.1	-1

Pulled one by one from the entries so far, five records:
item	SMILES	PrP 5UTR inh	BJeLR lethal	Autofluor counter	Mtb hypoxia rep	Mtb hypoxia rep growth	RN4220 kill	ugtP null kill
42	COc1ccc(N2C(=O)CSC23C(=O)N(CC(=O)NC2CCCC2)c2ccccc23)cc1 (stereo unspecified)	-13	2	6254	4	-2	5.4	2
35	O=C1CSC(=S)N1c1cccc(Br)c1	11	1	3476	4	-4	5.8	6
36	CCCCCCC1CC(C(C)=NNC(N)=O)OC1=O (stereo unspecified)	x	x	x	20	23	1.4	1
33	CCOC(=O)CC1=NN(c2ccccc2)C(=O)C1=c1sc(=C2SC(C)=C(C)N2CC)c(=O)n1CC	-20	x	4631	-2	5	2.5	2
32	COC(=O)NNC(=O)C12CC3CC(CC(C3)C1)C2	-3	-8	6873	6	0	7.4	7

Following part
item	SMILES	PrP 5UTR inh	BJeLR lethal	Autofluor counter	Mtb hypoxia rep	Mtb hypoxia rep growth	RN4220 kill	ugtP null kill
51	O=C(CSc1ccc(-c2cccs2)nn1)NCc1ccccc1Cl	x	8	x	0	5	20	21
52	CN(CC/C=C1/c2ccccc2CSc2ccccc21)CCCO	-24	-6	10699	x	x	x	x
53	Cc1ccc(S(=O)(=O)N2CCN(C(=O)CN3C(=O)c4ccc([N+](=O)[O-])cc4C3=O)CC2)c(C)c1	-25	4	6225	3	9	3.3	18
54	O=C(O)c1ccccc1C(=O)NC1CCCCNC1=O (stereo unspecified)	-12	10	4183	4	4	3.0	6
55	CC1CCc2nn(CC(=O)NCCCN3CCCCC3)cc2C1 (stereo unspecified)	-5	-1	5499	x	x	4.1	5
56	COc1ccc(OC)c(S(=O)(=O)N2CCC(C(=O)Nc3ccccc3)CC2)c1	-46	-8	4199	7	1	5.7	2
57	CCc1nnc(NC(=O)COC(=O)CN2C(=O)c3ccccc3C2=O)s1	5	0	2679	x	x	1.2	-3
58	O=C(O)c1cc(NN=Cc2ccc(N3CCOCC3)s2)ccc1Cl	x	x	x	12	-4	11	5
59	Cc1ccccc1CN(C)Cc1cc(=O)oc2c(C)c(C)ccc12	-43	-8	3948	14	4	0.2	15
60	CCc1sc(N(C(=O)Cc2ccccc2)c2ccccc2F)nc1-c1ccc(C)cc1	-23	-8	2717	5	-10	-11	85*
61	CC(=NNC(=O)CNC(=O)c1ccco1)c1ccc(Br)cc1	x	x	x	7	-2	0.7	2
62	CCn1cc(/C=C/C(=O)Nc2ccc(C)cc2Br)cn1	-58	-10	2103	2	-6	4.8	11
63	CCN=C1NN=C(c2c[nH]c3ccccc23)CS1	-55	2	3517	11	0	8.0	8
64	Cc1cc(O)c(C(C)C)cc1N=C1CSC(=O)N1	-2	-5	4575	x	x	0.6	-5
65	CC1CCN(C(=S)NC(=O)c2ccccc2Br)CC1	-6	-1	5715	-1	3	0.8	-1
66	COc1ccccc1CNC(=O)COC(=O)CNS(=O)(=O)c1ccc(NC(C)=O)cc1	-22	x	3932	4	4	4.4	5
67	Cn1cc(S(=O)(=O)N2CCOCC2)cc1C(=O)O	-14	x	4136	13	4	2.0	0
68	CCCCNc1ccc(C(F)(F)F)cc1S(=O)(=O)NCCc1ccc(F)cc1	-12	x	3921	3	4	-6.0	-33
69	CN1CCN(S(=O)(=O)c2ccc(Br)c3ccccc23)CC1	7	-4	x	-4	-9	-0.1	2
70	CC(=O)NC(C(=O)c1ccccc1)N1CCCCC1 (stereo unspecified)	-51	3	7679	-3	4	-1.4	-5
71	O=C(O)CCCSc1nccn1-c1ccccc1	-3	7	4513	9	4	0.8	9
72	Cc1ccc(CN2CCN(Cc3cccc(OCCO)c3)CC2CCO)o1 (stereo unspecified)	-22	2	2071	-2	3	0.4	0
73	COCCN1Cc2cc(=O)n3c([nH]c4ccccc43)c2C1=N	-38	-7	3943	-3	11	-2.3	1
74	CC1CC1C(=O)Nc1nc(-c2ccc(Cl)s2)cs1 (stereo unspecified)	-28	9	3331	11	1	2.5	33
75	COCCN(C(=O)c1ccc(C)o1)c1c(N)n(CC(C)C)c(=O)[nH]c1=O	-1	x	2810	-2	-3	7.0	12
76	COc1ccc(N2CCN(C(=O)c3cn(C)c4ccc(S(=O)(=O)N5CCOCC5)cc4c3=O)CC2)cc1	-9	-8	5271	6	4	1.5	4
77	O=C(Nc1nnc(SCc2c(Cl)cccc2Cl)s1)c1cccc([N+](=O)[O-])c1	-26	8	4328	-1	5	3.8	-2
78	Oc1ccccc1-c1nnc2n1CCCCC2	-18	4	4017	5	6	1.1	3
79	CS(=O)(=O)N(CCc1ccccc1)CC(=O)NCc1ccco1	-15	-2	3203	-1	2	-9.7	-6
80	CCOC(=O)CN1C(=N)N(c2nc(NC(C)C)nc(NC(C)C)n2)CC1=O	7	6	5231	8	0	1.3	5
81	O=C(N/N=C/c1cc2c(cc1Br)OCO2)C1COc2ccccc2O1 (stereo unspecified)	-40	-16	3976	x	x	x	x
82	O=C(CN1CCN(Cc2cccc(F)c2)CC1)Nc1ccccc1F	-13	0	4144	11	6	0.5	4

An unsorted share of the library; about 4.1% have a hit in one of these screens.
